# Assay outcomes (PubChem BioAssay)
# Sa ugtP lethal = growth inhibition of S. aureus ugtP deletion strain. S. aureus RN4220 ugtP deletion, OD600 growth, 16 h; some inactives read as strong as hits. growth inhibition, % (no concentration beside the values). hit rate 0.54% among 330,000. AID 1259309;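 active = z-score under -3 and OD600 up to 0.15 on both plates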;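 note: plate controls were untreated wells for no effect and antibiotic for full effect; wells of about 80 µL received 100 nL stock; the first replicate is given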
# Sa RN4220 lethal = kills Staphylococcus aureus RN4220; S. aureus RN4220 growth, OD600, 16 h; inhibition, % (test concentration not listed); hit rate 0.33% among 330,000; AID 1259311;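 active = z-score of -3 or lower and OD600 up to 0.18 on both plates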;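 note: plate controls were untreated cells for no effect and reference antibiotic for full effect; stock transfer was 100 nL into about 80 µL; one replicate is shown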
# Mtb hypoxia inh = reduces hypoxia-regulated biosensor signal in M. tuberculosis | M. tuberculosis hypoxia-regulated fluorescent reporter, fluorescence | fluorescence inhibition, % (no concentration beside the values) | hit rate 0.1% among 300,000 | AID 1159583;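 active = 35 to 45% if threefold the growth effect, above 45% if 1.5-fold the growth effect; inactive = the rest, general growth blockers included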;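 note: wells of about 50 µL received 100 nL stock; 0% = vehicle wells and 100% = reference inhibitor wells; whole bacteria with a GFP reporter of the hypoxia response; strong numbers were not always called active; many hits fall short of the cut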
# Bead autofluor = compound fluorescence in toxin protease inhibitor counterscreen | compound autofluorescence counterscreen, microsphere flow cytometry; stronger effect = higher value | fluorescence intensity (test concentration not listed) | hit rate 3.1% among 360,000;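 active = at least 3 SD above the mean of all compounds, about 16000 in these data; inconclusive = too few beads counted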;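 note: 100 nL of 1 mM stock went into each well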
# PrP UTR inh = suppresses PrP 5' UTR mRNA reporter expression; cell-based PrP 5' UTR mRNA reporter, plate reader; inhibition, % (concentration not given with the values); hit rate 0.35% among 340,000; AID 488862;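 active = every replicate at 50% or more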;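 note: 0 = median of the neutral control wells; tested in H4 reporter cells; numbers are from one replicate; inactives centre near -14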
# BJeLR lethal = kills HRASV12-expressing BJeLR cells; BJeLR (HRASV12) viability, CellTiter-Glo ATP luminescence, 48 h; reference of the scale not given here; inhibition, % (concentration not given with the values); hit rate 0.17% among 300,000;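 active = replicate mean above 50%; inconclusive = above 50% but judged a plate artefact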;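 note: 50 nL library stock added to about 25 µL; numbers are from one replicate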
# Mtb hypoxia inh growth = recorded beside Mtb hypoxia inh, whose call it bears; growth inhibition, %; measured here: M. tuberculosis growth (absorbance);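 0% = vehicle and 100% = reference antibiotic; read after six days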
# An asterisk follows results filed as active; ? = inconclusive; nt = not tested or not shown. The order is random; about 4% have a hit in one of these screens.
SMILES,Sa ugtP lethal,Sa RN4220 lethal,Mtb hypoxia inh,Mtb hypoxia inh growth,Bead autofluor,PrP UTR inh,BJeLR lethal
Cc1cc(C)c(S(=O)(=O)N2CCCC(C(=O)NCCC3=CCCCC3)C2)c(C)c1 (stereo unspecified),-4,-1.0,10,7,8364,nt,-8
CC(=O)c1ccc(COC(=O)c2cc3ccccc3oc2=O)cc1,4,1.4,-4,8,4142,-29,2
CC1CCC(=O)N(CCSc2ccccc2)CC1 (stereo unspecified),nt,nt,nt,nt,3383,-30,0
COc1cc(S(=O)(=O)N2CC(=O)Nc3ccccc32)ccc1NC(C)=O,-9,-3.2,12,3,5773,-13,-9
COc1ccc(NC(=O)C2=C(C)NC(=O)NC2c2cccc(OC)c2OC)c(OC)c1 (stereo unspecified),4,2.9,6,8,20365*,-11,-5
O=C(N=C1SC2CS(=O)(=O)CC2N1c1cccc(Cl)c1Cl)C1CCCO1 (stereo unspecified),-3,-1.8,-3,5,5708,2,5
COC(=O)c1c(C)[nH]c(C(=O)OCC(=O)N2c3ccccc3NC(=O)C2(C)C)c1C,-4,3.1,7,3,2346,-21,-1
CN(C)S(=O)(=O)c1cccc(C(=O)Nc2cc(Cl)cc(Cl)c2)c1,10,-8.7,nt,nt,4740,-18,8
Fc1ccc2nc(Nc3nc4cc5c(cc4s3)OCCO5)sc2c1,-8,-6.5,-2,5,2431,-87,-16
Cc1ccc(-c2nnc3sc(C4COc5ccccc5O4)nn23)cc1 (stereo unspecified),-4,0.3,20,20,10640,-15,nt

# In the list so far, 3 contain a halogen:
SMILES,Sa ugtP lethal,Sa RN4220 lethal,Mtb hypoxia inh,Mtb hypoxia inh growth,Bead autofluor,PrP UTR inh,BJeLR lethal
O=C(N=C1SC2CS(=O)(=O)CC2N1c1cccc(Cl)c1Cl)C1CCCO1 (stereo unspecified),-3,-1.8,-3,5,5708,2,5
CN(C)S(=O)(=O)c1cccc(C(=O)Nc2cc(Cl)cc(Cl)c2)c1,10,-8.7,nt,nt,4740,-18,8
Fc1ccc2nc(Nc3nc4cc5c(cc4s3)OCCO5)sc2c1,-8,-6.5,-2,5,2431,-87,-16

# Additional records
SMILES,Sa ugtP lethal,Sa RN4220 lethal,Mtb hypoxia inh,Mtb hypoxia inh growth,Bead autofluor,PrP UTR inh,BJeLR lethal
Cc1cc(C(=O)COC(=O)c2ccc3c(c2)OCO3)c(C)n1CC1CCCO1 (stereo unspecified),-4,5.0,-5,0,3701,-12,-6
O=C1N=C(N2CCOCC2)S/C1=C\c1ccc(-c2ccccc2Cl)o1,-8,-1.4,3,10,8595,16,22
COc1cccc(N2[C@@H](CC(C)=O)c3ccc(/C=C/C(C)=O)cc3S2(=O)=O)c1,nt,nt,nt,nt,4467,-15,-5
COc1ccc(CN2CCN(C(=O)c3cc(C4CC4)nn3-c3ccccc3)CC2)cc1F,7,3.9,7,8,9274,6,nt
CCOC(=O)NC(=O)C(/C=N/c1sccc1C(=O)OC)=C(\C)O,5,4.8,18,1,4526,-13,3
CC(=O)c1ccc(N2CCN(C(=O)COc3ccccc3F)CC2)c(F)c1,6,6.2,nt,nt,5363,-16,1
COc1ccccc1N1CCN(C(=O)C2CCN(C(=O)c3ccccc3C)CC2)CC1,14,4.9,12,-1,6020,-23,1
COc1cccc(-c2nnc(SC(C(=O)c3c[nH]c4ccccc34)c3ccccc3)n2C)c1 (stereo unspecified),-22,9.1,0,3,2451,-1,3
O=C(N/N=C/c1ccc(N2CCOCC2)o1)c1cccc(C(F)(F)F)c1,nt,nt,nt,nt,24154*,-14,-3
Cc1cc(C)c2nc(C(F)(F)F)nc(NCCCN3CCCC3=O)c2c1,-5,-1.5,-8,1,9360,-30,-1
CCCCn1cnc2cc(NCc3ccncc3)ccc21,4,3.3,0,6,19414*,-9,0
COc1ccc(C(=O)NN=Cc2ccc(OC(=O)c3ccccc3)cc2)cc1,0,3.6,15,6,nt,nt,nt
COc1ccc(C=NNC(=O)c2sccc2C)cc1Cn1nc(C)cc1C,-10,-0.3,-4,1,nt,nt,nt
COc1ccc(NC(=O)CN(C)C(=O)Cc2ccc(S(=O)(=O)N3CCOCC3)s2)cc1,3,2.8,3,2,3336,-16,19
CCOC(=O)C1CCN(C(=O)CN2C(=O)COc3ccc(C(C)(C)C)cc32)CC1,6,-4.2,8,-1,5749,-19,-5
Cc1ccc(Nc2nc(NCc3ccco3)c3ccccc3n2)cc1,-16,-8.9,-18,-9,8961,-88,13
NNC(=O)c1ccc(N2CCCCCC2)c([N+](=O)[O-])c1,5,2.7,-6,-2,4222,-16,0
CCOc1ccc(CC(=O)N/N=C(\C)c2cccnc2)cc1OCC,nt,nt,nt,nt,?,-10,1
CC(=O)Nc1ccc(C(C)=NNS(=O)(=O)c2ccccc2)cc1,2,2.0,6,7,nt,nt,nt
COc1ccc(CSCCNC(=S)Nc2ccccc2)cc1Cl,-2,16,14,18,3994,-25,-7
NS(=O)(=O)c1ccc(CNC(=O)c2scc3c2CCCC3)cc1,7,-2.7,7,8,4896,-74,3
CC(=NNC(=O)Cn1ccc(C(F)(F)F)n1)c1ccc(-n2ccnc2)cc1,8,4.5,14,7,3997,-15,nt
CCCCOC(=O)c1ccc(NC(C)=O)cc1,1,1.2,nt,nt,4890,3,-1
Cc1cc(C(=O)CSc2nnc(N)s2)c(C)n1Cc1cccs1,13,1.5,1,-2,2075,27,12
O=C1CCCC2=C1C(c1ccc(Cl)cc1)C1C(=O)c3ccccc3C1=N2 (stereo unspecified),-6,-3.0,11,9,13282,-5,1
CC1(C)Cc2ccccc2C(NNC(=O)c2ccccn2)=N1,3,0.4,2,4,2698,-13,3
CCC(=O)c1ccc(OCC(=O)Nc2ccccc2N2CCOCC2)cc1,0,2.1,0,16,9550,-13,nt
COc1ccc(-n2cnc3c(sc4nc(N5CCOCC5)c5c(c43)CCCC5)c2=O)cc1,3,-2.4,14,4,5390,-10,11
Cc1ccc(NC(=O)NC2OC(=O)c3ccccc32)cc1 (stereo unspecified),-6,30,10,0,4095,-26,nt
COc1ccc(C(=O)N2CCOCC2)cc1S(=O)(=O)N1CCC(C)CC1,-1,3.9,3,5,4234,-11,-21

# Compounds from the list above that contain two or more sulfur atoms, in the order listed:
SMILES,Sa ugtP lethal,Sa RN4220 lethal,Mtb hypoxia inh,Mtb hypoxia inh growth,Bead autofluor,PrP UTR inh,BJeLR lethal
O=C(N=C1SC2CS(=O)(=O)CC2N1c1cccc(Cl)c1Cl)C1CCCO1 (stereo unspecified),-3,-1.8,-3,5,5708,2,5
Fc1ccc2nc(Nc3nc4cc5c(cc4s3)OCCO5)sc2c1,-8,-6.5,-2,5,2431,-87,-16
COc1ccc(NC(=O)CN(C)C(=O)Cc2ccc(S(=O)(=O)N3CCOCC3)s2)cc1,3,2.8,3,2,3336,-16,19
COc1ccc(CSCCNC(=S)Nc2ccccc2)cc1Cl,-2,16,14,18,3994,-25,-7
NS(=O)(=O)c1ccc(CNC(=O)c2scc3c2CCCC3)cc1,7,-2.7,7,8,4896,-74,3
Cc1cc(C(=O)CSc2nnc(N)s2)c(C)n1Cc1cccs1,13,1.5,1,-2,2075,27,12

# Remaining list, next part
SMILES,Sa ugtP lethal,Sa RN4220 lethal,Mtb hypoxia inh,Mtb hypoxia inh growth,Bead autofluor,PrP UTR inh,BJeLR lethal
O=C(Nc1ccc2c(c1)OCO2)c1ccccn1,-1,3.6,9,-8,2550,-53,nt
CCOc1ccccc1Nc1nc(N)nc(Cl)c1CC,3,3.3,11,2,3654,-14,nt
O=c1cc(CN2CCN(S(=O)(=O)c3ccccc3)CC2)nc2sccn12,0,5.3,11,0,4136,-15,5
CCOC(=O)c1ccc(NC(=O)NNS(=O)(=O)c2cc(OC)ccc2OC)cc1,0,2.0,7,5,5335,-9,-3
O=C1C(c2ccccc2)SC(=Nc2ccccc2)N1S(=O)(=O)c1ccccc1 (stereo unspecified),-3,-2.3,nt,nt,2154,-26,-7
COC(=O)c1c(NC(=O)CC2SC(N)=NC2=O)sc(C)c1C (stereo unspecified),-7,2.2,5,5,2474,1,2
Cc1ccc(C)c(S(=O)(=O)N2CCN(C(=O)c3cc(S(=O)(=O)NCc4ccccc4)ccc3C)CC2)c1,-1,-0.7,0,-7,4320,-15,7
CCOc1ccc(-c2n[nH]c(C)c2-c2ccccc2OC)c(O)c1,2,2.1,nt,nt,3049,-1,7
Cc1noc2ncnc(N3CCCC3)c12,7,3.2,10,9,4288,-28,7
Cc1ccc(C(=O)Nc2ccc(S(=O)(=O)NC3=NCCCCC3)cc2)cc1S(=O)(=O)N1CCOCC1,9,1.6,20,24,2996,-9,nt
CN(C)C(=O)CSc1nc2ccccc2n1Cc1ccccc1,6,6.2,-3,2,2557,-8,2
c1ccc(-c2cc(-c3ccccc3)on2)cc1,3,6.3,15,11,4757,-69,-5
CCCN1C(=O)C(=Cc2cc(C)n(C)c2C)SC1=Nc1ccc(OCC)cc1,13,3.6,4,14,nt,nt,nt
CC(C)CC(=O)N1CCN(S(=O)(=O)c2ccc(Cl)cc2)CC1,8,3.0,13,3,4350,-35,4
COC(=O)c1ccc(Cn2nnc3c(=O)[nH]c(C4CCCN(S(=O)(=O)c5cccc(Cl)c5)C4)nc32)cc1 (stereo unspecified),23,0.8,-1,2,5230,-10,2
CCCn1c2ccc(C)cc2c2nnc(SCCN3CCOCC3)nc21,5,3.4,2,16,3907,-38,3
CCN(CC)C(=O)CN1C(=O)NC2(CCc3ccccc3C2)C1=O (stereo unspecified),14,2.6,14,13,4482,0,2
CCOC(=O)C(NC(=O)c1ccccc1)=C(C)C,-1,3.3,-9,7,9167,-28,-5
Cc1coc2cc3oc(=O)c4c(c3cc12)CCC4,5,4.6,nt,nt,nt,nt,5
COc1cccc(CC(=O)OCC(=O)NC2CCCC2)c1,2,2.4,8,-4,nt,-10,nt
Cc1cc(=O)n2[nH]c(N)c(N=Nc3ccccc3F)c2n1,1,-0.1,-8,-5,2146,-2,-7
CN(CC(=O)Nc1ccc(F)c(F)c1F)C(=O)c1ccc(-n2cncn2)c([N+](=O)[O-])c1,4,0.5,6,4,nt,-11,-4
CC1Cc2ccccc2N1C(=O)CCn1c(=O)sc2ccccc21 (stereo unspecified),-8,-11,3,-6,5681,-8,9
Cc1ccc2nc(CCl)[n+]([O-])c(-c3ccccc3)c2c1,nt,nt,nt,nt,2963,-13,10
O=C(NCCCN1CCN(c2ccccc2F)CC1)C1CCCN(S(=O)(=O)c2cnc[nH]2)C1 (stereo unspecified),0,2.1,nt,nt,5970,-3,-2
CC1CCCN(C(=O)CCNS(=O)(=O)c2ccc3c(c2)oc(=O)n3C)C1 (stereo unspecified),0,3.4,15,6,6009,-13,9
COc1ccc(-c2nnn(CC(=O)N(Cc3ccccc3Cl)C(C(=O)NCC3CCCO3)c3ccco3)n2)cc1OC (stereo unspecified),0,0.8,-10,0,?,1,5
CCOC(=O)c1[nH]c2ccc(OCC)cc2c1NC(=O)CN1CCCC(C)C1 (stereo unspecified),-9,3.2,nt,nt,2893,-14,-2
COc1ccc(Cc2nc(-c3ccc(NC(=O)c4cccnc4)cc3)no2)cc1,-4,-1.7,nt,nt,2307,-11,90*
CNC(=S)N=C(Nc1ccccc1)c1ccccc1,2,0.1,-5,-10,nt,nt,nt
O=C1C2CC=CCC2C(=O)N1c1n[nH]c(Cc2ccccc2)n1 (stereo unspecified),5,4.3,3,6,8240,-27,-4
CCOC(=O)/C=C1\CC(=O)Nc2nonc2N1,7,5.7,1,5,22714*,-16,-13
CC(C)(C)c1csc(NC(=O)c2cccs2)n1,-6,4.5,5,8,4455,-56,12
O=C(Nc1ccc2oc(=O)ccc2c1)c1cccnc1Cl,-2,-1.8,11,12,3405,-13,-3
O=C(Nc1ccc(N2CCOCC2)nc1N1CCOCC1)c1cccc(C(F)(F)F)c1,6,5.1,-5,3,5940,-24,0
Cn1cccc1C(C#N)c1ncc(C(F)(F)F)cc1Cl (stereo unspecified),0,1.3,-4,6,2474,-11,9
COc1cc(NC(=O)c2ccccc2F)ccc1NC(=O)c1ccccc1Cl,6,15,3,8,2567,-11,5
Cc1ccccc1-c1ccc(/C=C2/SC(N3CCOCC3)=NC2=O)o1,3,9.4,-5,9,4011,-32,10
